# CtBP-E1A blk: inhibitors of CtBP/E1A interaction; AlphaScreen GST-E1A/His-CtBP binding, 1536-well; active compounds read low; control for the full effect not named in the record; activity change, % (concentration not given with the values); actives 0.49% (n = 340,000); AID 651724; in the data active means activity change below about -65%; inconclusive means about -30% to -65%; inactive means above about -30%; further: on the % scale 0 is the no-effect control and ±100 the full control effect
#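 Homogeneous bead-based format: GST-tagged E1A captured on glutathione donor beads, His-tagged CtBP on nickel acceptor beads; compounds precede bead addition by 2 h at 37 °C.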
# Six1-Eya2 blk: blocks human Six1 binding to Eya2; Q15475+O00167; AlphaScreen GST-Six1/His-Eya2 binding, biochemical; active compounds read low; control for the full effect not named in the record; activity change, % (concentration not given with the values); actives 0.56% (n = 360,000); in the data active = activity change below about -65%; inconclusive = about -30% to -65%; inactive = above about -30%; further: on the % scale 0 is the no-effect control and ±100 the full control effect
# Target sequence (O00167 whole entry, looked up): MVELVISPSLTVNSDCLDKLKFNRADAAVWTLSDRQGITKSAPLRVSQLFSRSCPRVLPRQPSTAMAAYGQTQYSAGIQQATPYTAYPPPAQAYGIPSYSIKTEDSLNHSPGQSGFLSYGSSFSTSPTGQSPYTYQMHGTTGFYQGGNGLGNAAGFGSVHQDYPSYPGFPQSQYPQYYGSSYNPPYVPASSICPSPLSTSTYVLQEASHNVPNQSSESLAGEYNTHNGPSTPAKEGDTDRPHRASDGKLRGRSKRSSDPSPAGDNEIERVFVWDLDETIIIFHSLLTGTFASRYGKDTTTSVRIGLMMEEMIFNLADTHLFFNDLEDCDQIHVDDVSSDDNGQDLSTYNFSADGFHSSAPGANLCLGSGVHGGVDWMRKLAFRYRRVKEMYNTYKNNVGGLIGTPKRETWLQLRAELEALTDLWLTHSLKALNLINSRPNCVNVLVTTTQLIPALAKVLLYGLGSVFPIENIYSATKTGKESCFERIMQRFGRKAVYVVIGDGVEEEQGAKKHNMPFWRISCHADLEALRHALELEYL
# Target sequence (Q15475 whole entry, looked up): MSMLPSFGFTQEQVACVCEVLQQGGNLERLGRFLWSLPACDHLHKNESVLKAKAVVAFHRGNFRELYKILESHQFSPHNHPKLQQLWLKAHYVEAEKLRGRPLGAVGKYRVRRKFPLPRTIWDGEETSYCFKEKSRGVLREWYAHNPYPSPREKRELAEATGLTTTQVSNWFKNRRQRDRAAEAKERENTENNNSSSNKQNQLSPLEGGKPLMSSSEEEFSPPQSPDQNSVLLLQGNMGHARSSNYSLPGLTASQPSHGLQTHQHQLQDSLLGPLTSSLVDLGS
#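 Compounds are tested against tagged Six1 and Eya2 proteins bridged by glutathione donor and nickel acceptor beads; after a one-hour incubation at 37 °C without light, AlphaScreen emission is recorded.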
# TRPML1 agonist: human mucolipin-1 channel agonism; Q9GZU1; TRPML1-expressing cells, Ca2+ dye fluorescence, FDSS; host cell line not named in the record; reference of the full effect not given here; actives 0.12% (n = 410,000); activation, % (concentration not given with the values); in the data active = activation above about 50%; inconclusive = about 30% to 50%; inactive = below about 30%; further: 0% is about no effect; the text of the record puts the active cut at 80%
#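 In this qHTS format, compounds were pin-transferred onto Ca8-dye-loaded TRPML1-DL cells induced with Tet overnight, and intracellular Ca2+ fluorescence was recorded kinetically for 110 s after a 10 s baseline. A subsequent 4uM final 54-4 (EC80) addition followed by a second 110 s read served as the antagonist phase.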
# PINK1 modulator: PINK1 expression modulation; PINK1 immunofluorescence, high-content cytometry, 24 h; Potency, µM (top dose mostly 76.6 µM), for inactives: at the highest dose activation (PINK1 increase), actives largely listed as activators; actives 0.2% (n = 410,000); AID 624263; active = well fitted activation curve with a large enough effect; inconclusive = small, poorly fitted or top-dose-only effect; inactive = flat fitted curve, though single readings scatter; cell line not stated here;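 further: potency means the concentration at half of the fitted maximal effect; % of control where 0% means no effect; nearly all actives have a fitted effect of over 65% in size; a mitochondrial uncoupler was the plate control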
#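 Cells are seeded, rested 12 hours, then given compound at five concentrations or DMSO for 24 hours. After fixation, blocking and antibody staining, PINK1 amount and mitochondrial localization are scored; CCCP serves as control.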
# D2 agonist: agonists of human D2 dopamine receptor (beta-arrestin); DiscoveRx PathHunter D2 beta-arrestin, luminescence, 90 min; 100% = 57 uM dopamine signal; activation, % (concentration not given with the values); actives 0.084% (n = 360,000); in the data active = activation above about 40%; inconclusive = about 15% to 40%; inactive = below about 15%; further: compound concentration not given in the record; the text of the record calls up to 30% inactive
#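 Agonist mode: compounds alone added to overnight-plated D2 PathHunter cells for 90 min at 37 C, with 57 uM final dopamine (EC100) defining full response. Beta-arrestin recruitment detected by chemiluminescent reagent, read after 1 h at ambient temperature.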
# TRPML1 inh: inhibitors of human TRPML1 channel | activity change, negative = inhibition, % (concentration not given with the values) | Q9GZU1 | AID 624415 | actives 0.02% (n = 390,000) | TRPML1-inducible cells, Ca2+ dye fluorescence, FDSS; active compounds read low; inhibition of EC80 agonist-evoked calcium signal; in the data active means activity change below about -50%; inconclusive means about -30% to -50%; inactive means above about -30%;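 further: stimulus is agonist 54-4 at its EC80 concentration; on the % scale 0 is the no-effect control and ±100 the full control effect; the text of the record puts the active cut at -80%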
#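 TRPML1-DL cells, Tet-induced overnight (~16 h, 37 °C) at 1,500 cells/well, were loaded with Ca8 no-wash dye plus quencher for 45-90 min at room temperature. Compounds were pinned during FDSS kinetic reading; agonist 54-4 at EC80 (4 uM final) then added.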
# * marks the source's active call; other numbers are inactive results; u = inconclusive; x = no result given; [ ] = remark or other dose.
Compound | CtBP-E1A blk | Six1-Eya2 blk | TRPML1 agonist | PINK1 modulator | D2 agonist | TRPML1 inh
COc1ccccc1CNC(=O)c1cnc(SC)nc1C | x | x | 1.4 | 3.5% | x | 7
CCC1Oc2ccc(C)cc2N(CC(=O)N(Cc2ccc(C)o2)C2CCCC2)C1=O (stereo unspecified) | 0 | -12 | 0.3 | 11% | -4.4 | 21
O=C(COc1ccccc1[N+](=O)[O-])Nc1ccc2c(c1)OCO2 | -4 | -4 | 0.9 | 0.1% | 0.4 | 5
O=C(N/N=C/c1cccnc1)c1ccc(NC(=O)C(c2ccccc2)c2ccccc2)cc1 | -2 | -15 | -0.1 | 14% | 12 | -4
O=C(O)c1ccc(Cl)c(S(=O)(=O)Nc2ccc(S(=O)(=O)N3CCCC3)cc2)c1 | x | 0 | 0.3 | 0.5% | 3.3 | 7
Cc1ccccc1N1CCN(CC(=O)Nc2nccs2)CC1 | 10 | -4 | -0.3 | 2.5% | 2.1 | -7
CC1(C)CC[C@]2(C(=O)O)CC[C@]3(C)C(=CC[C@@H]4[C@@]5(C)CC[C@H](O)C(C)(C)[C@@H]5CC[C@]43C)[C@@H]2C1 | 2 | -5 | 0.0 | 0.0% | 3.1 | 8
O=C(N=C1SC2CS(=O)(=O)CC2N1Cc1ccc(F)cc1)C1CC1 (stereo unspecified) | 10 | -1 | -0.2 | 0.0% | -1.9 | 31
Cc1cc(C)nc(SCC(=O)c2ccc([N+](=O)[O-])cc2)n1 | -10 | -3 | -0.3 | -1.3% | 2.9 | -3
Cc1c(Cl)c([N+](=O)[O-])nn1CC(=O)N1CCCC1 | 1 | 10 | 0.0 | -0.7% | -1.7 | -17
CCc1nn(CC(=O)N2CCN(c3cccc(OC)c3)CC2)c(=O)c2cc3occc3n12 | x | x | -0.5 | 1.8% | x | -18
O=C(c1ccccc1Cl)N(Cc1ccccc1F)N1C(=O)CCCC1=O | 5 | 0 | -0.3 | -0.2% | -0.5 | 17
CN(C)S(=O)(=O)c1ccc(C(=O)Nc2nnc(SCc3cccc4ccccc34)s2)cc1 | 8 | 21 | -0.6 | 8.9% | -5.0 | -12
CC(=O)Nc1cccc2c1C(=O)N(c1ccccc1OC(C)=O)C2=O | 0 | 9 | 0.3 | -2.2% | -2.8 | -4
CC1CN(C(=O)Cn2cc(SCC(=O)N3CCOCC3)c3ccccc32)CC(C)O1 (stereo unspecified) | 4 | 4 | 1.1 | -0.8% | -3.0 | 8
Cc1cccc(C)c1NC(=O)C(C)N1CCCCC1 (stereo unspecified) | 4 | 8 | 0.2 | 0.6% | -3.1 | 16
COc1ccc(NC(=O)c2ccc(Br)o2)cc1 | 0 | 6 | -0.3 | -0.3% | -1.4 | 8
CCc1nnc(NC(=O)CSc2nc(-c3ccccc3)cc(-c3ccc(OC)cc3)c2C#N)s1 | -1 | 0 | 1.8 | 1.9% | -5.4 | -17
COc1ccc(N2CCN(C(=O)CCS(=O)(=O)c3ccc4c(c3)CCN4C(=O)C3CC3)CC2)cc1 | -3 | 0 | -0.2 | -0.3% | -1.6 | -7
Cc1ccc(-n2nnc3c(=O)n(CC(=O)N4CCOCC4)cnc32)cc1 | -6 | 3 | -0.4 | 0.2% | -5.9 | 18

# In the list so far, these contain fluorine:
Compound | CtBP-E1A blk | Six1-Eya2 blk | TRPML1 agonist | PINK1 modulator | D2 agonist | TRPML1 inh
O=C(N=C1SC2CS(=O)(=O)CC2N1Cc1ccc(F)cc1)C1CC1 (stereo unspecified) | 10 | -1 | -0.2 | 0.0% | -1.9 | 31
O=C(c1ccccc1Cl)N(Cc1ccccc1F)N1C(=O)CCCC1=O | 5 | 0 | -0.3 | -0.2% | -0.5 | 17

# Next section.
Compound | CtBP-E1A blk | Six1-Eya2 blk | TRPML1 agonist | PINK1 modulator | D2 agonist | TRPML1 inh
Cc1ccc(N=C2C(=O)Nc3c(C)cccc32)cc1 | x | -2 | x | 0.0% | -11 | x
COc1cc(OC)cc(C(=O)N(Cc2ccco2)c2c(N)n(Cc3ccccc3)c(=O)[nH]c2=O)c1 | 4 | 0 | -0.2 | -0.6% | -1.2 | 0
O=C(c1[nH]ncc1-c1ccc(Cl)cc1)C1CO1 (stereo unspecified) | -3 | -16 | 0.7 | 3.7% | -1.5 | 2
CCCOc1ccc(C(=O)CCC(=O)NNC(=O)c2ccncc2)cc1 | 3 | -2 | 0.0 | -0.8% | 0.0 | -5
CCc1nc(SCC(=O)NCCc2ccccc2)c2oc3ccccc3c2n1 | 0 | 7 | -0.7 | -1.0% | 0.9 | 7
CC(=O)c1ccc(S(=O)(=O)NCCC(=O)OC(C)C(=O)Nc2ccc(F)cc2)cc1 (stereo unspecified) | 10 | -3 | 0.0 | -2.8% | -0.9 | -2
Cc1[nH]c2ccc(C(=O)NCCCN(C)C3CCCCC3)cc2c1C | -16 | -16 | 0.1 | -1.2% | -5.2 | -5
Cc1cc(C)c(NC(=O)COC(=O)c2cccc3c2C(=O)c2ccccc2C3=O)c(C)c1 | u | u | 4.3 | 1.0% | 12 | -4
COc1cc(NC(=O)COC(=O)Cn2cnc3c2c(=O)n(C)c(=O)n3C)cc(OC)c1 | -1 | 4 | 0.5 | -0.5% | -1.4 | -9
C/C(=N/N=C/c1ccccc1O)c1ccccc1O | 25 | 6 | 0.8 | 12% | -0.5 | -6

# Compound profiles, from the list above.
# Cc1cc(C)c(NC(=O)COC(=O)c2cccc3c2C(=O)c2ccccc2C3=O)c(C)c1 across the screens: CtBP-E1A blk = u; Six1-Eya2 blk = u; TRPML1 agonist = 4.3; PINK1 modulator = 1.0%; D2 agonist = 12; TRPML1 inh = -4
# CN(C)S(=O)(=O)c1ccc(C(=O)Nc2nnc(SCc3cccc4ccccc34)s2)cc1 across the screens: CtBP-E1A blk = 8; Six1-Eya2 blk = 21; TRPML1 agonist = -0.6; PINK1 modulator = 8.9%; D2 agonist = -5.0; TRPML1 inh = -12

# Next results.
Compound | CtBP-E1A blk | Six1-Eya2 blk | TRPML1 agonist | PINK1 modulator | D2 agonist | TRPML1 inh
O=C(CO)N/N=C/c1cccc(Cl)c1Cl | 2 | 1 | -0.3 | 5.0% | -4.3 | 44
O=C(O)CC12CC3CC(C1)CC(n1ncc(NCc4ccc(F)cc4Cl)c(Cl)c1=O)(C3)C2 | 3 | -2 | 0.1 | 1.5% | -5.5 | -9
CN(C)C(=O)/C(=C/c1cn(-c2ccccc2)nc1-c1cccc([N+](=O)[O-])c1)NC(=O)c1ccccc1 | -5 | -2 | -0.9 | 4.8% | -5.1 | -5
CCOC(=O)N1CCN(C(c2ccc(C(C)C)cc2)c2sc3nc(C)nn3c2O)CC1 (stereo unspecified) | 2 | -3 | 1.2 | -0.3% | 4.9 | 1
S=c1[nH]nc(CSCCOc2ccccc2)o1 | -23 | -2 | 0.6 | -0.5% | -6.1 | 5
CCC/C=C/c1ccc(CN2C(CC(C)C)C(=O)N(Cc3cn(Cc4ccco4)nn3)CCS2(=O)=O)cc1 (stereo unspecified) | -26 | -7 | 0.2 | 6.1% | -8.7 | -8
CCCCOc1ccc(C(=O)N=c2sccn2C)cc1OC | 5 | 1 | -0.3 | 3.0% | 1.0 | 3
CCCn1c(=N)n(CCOc2ccc(OC)cc2)c2ccccc21 | -1 | 0 | -0.5 | -2.1% | -1.4 | 5
Cc1cnc(NC(=O)Cc2ccc(Br)cc2)s1 | 5 | 4 | 0.3 | 0.3% | 1.7 | 3
COC(Cc1n[nH]c(=S)n1-c1ccc(Cl)cc1)OC | 2 | 4 | 0.2 | -10.0%[38.3 µM] | -3.7 | 8
C/C(=N\O)c1c(O)cc(-c2ccccc2)n(-c2ccccc2)c1=O | 6 | 3 | 0.1 | -0.9% | -7.9 | 8
CC(=O)N1CC(C)Sc2ccc(S(=O)(=O)NC3CCCCC3C)cc21 (stereo unspecified) | 5 | 2 | 1.4 | 1.0% | 3.7 | -14
N#Cc1ccc(OCCOCCNC2CCCC2)cc1 | -1 | 1 | -0.3 | 2.6% | -4.7 | 18
COc1ccc(-c2cc(=O)c3ccccc3n2C)cc1 | 4 | 0 | -1.1 | -1.3% | -4.3 | 19
CN(C)S(=O)(=O)c1ccc(N)c([N+](=O)[O-])c1 | x | 4 | -0.3 | 0.4% | -2.2 | -6
CCC1OC(C2CC2)CC2=C1C(=O)OC(C)(C)O2 (stereo unspecified) | 10 | -1 | -0.7 | 3.3% | x | x
O=C1NN=C(c2ccccc2)CC1c1ccc(Cl)cc1Cl (stereo unspecified) | -23 | 14 | 1.8 | 0.8% | 1.8 | 8
O=C(NC1=NCCS1)c1ccc(Cl)cc1 | x | -5 | 15 | 2.8% | -1.3 | 0
COc1ccc(NC(=O)c2cc3c(=O)n(Cc4cccnc4)ccc3nc2C)cc1Cl | x | x | 1.1 | -0.4% | x | -11
CCCCn1c(=N)n(CC(O)COc2ccccc2)c2ccccc21 (stereo unspecified) | 16 | 2 | 0.3 | 3.1% | -0.8 | 5
CCN1CCN(S(=O)(=O)c2ccc(Cl)c(C(=O)Nc3cc(Cl)ccc3N3CCOCC3)c2)CC1 | -16 | -6 | 74* | -0.2% | -2.7 | -20
Cc1ccc(NC(=O)CSC(C)C(=O)OCC(=O)N2CCN(C(=O)c3ccco3)CC2)cc1 (stereo unspecified) | 17 | 2 | -0.2 | -0.3% | -4.3 | 6
CCC1Oc2ccc(C)cc2N(CC(=O)N(Cc2cccnc2)Cc2cccc(F)c2)C1=O (stereo unspecified) | 1 | -3 | 2.3 | 6.6% | 0.8 | 1
COC(=O)c1ccc(S(=O)(=O)c2ccc(C(=O)OC)s2)s1 | 13 | 7 | 0.6 | -1.5%[38.3 µM] | 0.3 | 10
CC(NS(=O)(=O)c1ccccc1)c1n[nH]c(=S)n1-c1ccccc1 (stereo unspecified) | 1 | 3 | -0.8 | -1.0% | 1.9 | 1
O=c1c2[nH]cnc2n(-c2cccc(Br)c2)c(=O)n1Cc1ccccc1 | -6 | -1 | x | 1.1% | -10 | x

# Copied from the list:
# PINK1 modulator, Cc1ccc(N=C2C(=O)Nc3c(C)cccc32)cc1 stands at 0.0%
# TRPML1 agonist, O=C(c1[nH]ncc1-c1ccc(Cl)cc1)C1CO1 (stereo unspecified) stands at 0.7

# Screening data (PubChem)

# Rows were taken by chance; about 1% have a hit in one of these screens.
